UUG fidelity = modulators of yeast start codon fidelity, primary screen, whole organism, S. cerevisiae, single point, plate reader. 0.13% of 350,000 active. activity score, % at 18.7 µM. S. cerevisiae UUG-firefly luciferase reporter, luminescence/redox ratio;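 active means replicate mean at a twofold rise or more, about +100% in these data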;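 further: firefly luciferase made from a UUG start codon reports start codon fidelity; reporter light over untreated wells divided by growth signal over untreated wells; some hits fall short of that in this replicate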
Env fusion inh = inhibitors of HIV-1 Env-driven cell-cell fusion, primary screen, HeLa-JRFL effector, CEM21 target cells, luciferase. 1.1% of 360,000 active. AID 651610, 2012. inhibition, % at 12.3 µM;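 active means mean replicate inhibition score of at least 50 and every replicate individually at or above 50; inconclusive means only one of the two criteria met; inactive means mean below 50 and not all replicates reaching 50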;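 further: 0% = plate neutral controls and 100% = maraviroc near 300 nM; one replicate is shown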
MT1-MMP act inh = blockers of MT1-MMP proenzyme processing, primary screen, HT1080 RFP-PRO-GFP cells, GFP/RFP fluorescence; AID 651647, 2012; GFP/RFP ratio fluorescence, overnight; percent of plate control window, DMSO zero; Matrix metalloproteinase-14 (Homo sapiens), P50281; 0.061% of 360,000 active; GFP/RFP ratio change, % at 20 µM;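 active means GFP/RFP ratio change of at least 30% with cell ATP level not reduced by more than half and red fluorescence within 50% of control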; further: strong numbers were not always called active
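Assay system: HT1080 RFP-PRO-GFP cells. Benchmarks: DMSO vehicle wells and RFP-L50D-GFP reporter cell wells. Times: overnight cell settling, then overnight compound exposure, 37 °C, 5% CO2. Compound: 20 µM single dose, 1% DMSO. Read-out basis: GFP/RFP fluorescence ratio.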
CSC inhib = cancer stem cell viability inhibitors, primary screen, luminescence; AID 2717, 2010; cancer stem cell-like cells viability; inhibition, % at 7.5 µM; 1.1% of 300,000 active;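 active means mean at 75% or more and at least half the replicates too; inconclusive means mean and replicates disagree; tested in HMLE shEcad cells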;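 further: 0% = median of negative and 100% = median of positive control wells; the first replicate is given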
eIF4H inh = human eIF4H binding inhibitors, primary screen, translation initiation inhibitor project, biochemical, uHTS, fluorescence polarization | 0.94% of 290,000 active | eIF4H fluorescence polarization binding assay | inhibition, % at 35 µM;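 active means 50% or more with normal probe brightness, or confirmed in later tests; inconclusive means above 50% with abnormal brightness, or retests that disagree; inactive means below 50% or failed in later tests; about a fifth of its hits are not listed in these tables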;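 further: calls also rest on retests at 20 µM and on dose response follow-up; 0% = protein and probe with vehicle and 100% = probe without protein; strong numbers were not always called active; many hits fall short of the cut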
PABP FP inh = PABP poly(A) RNA binding inhibitors, primary screen, biochemical, fluorescence polarization, uHTS | Polyadenylate-binding protein 1 (Homo sapiens), P11940 | inhibition, % at 35 µM | 1% of 290,000 active;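 active means 50% or more with normal probe brightness, or confirmed in later tests; inconclusive means above 50% with abnormal brightness, or retests that disagree; inactive means below 50% or failed in later tests; about a fifth of its hits are not listed in these tables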;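 further: calls also rest on retests at 20 µM and on dose response follow-up; controls were probe without protein and protein plus probe with vehicle; some compounds called inactive have numbers as strong as hits; many hits fall short of the cut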
Rce1 inh = yeast Rce1p protease inhibitors, primary screen, biochemical, fluorescence, cell-free homogeneous. 0.27% of 290,000 active. AID 2563, 2010. CAAX prenyl protease 2 (Saccharomyces cerevisiae (strain ATCC 204508 / S288c)), Q03530. yeast membranes, quenched prenylated peptide cleavage fluorescence. calls only;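 active means fall in fluorescence gain of 50% or more versus controls, with final raw signal at or below 3038400; inconclusive means same 50% fall but final raw signal above 3038400; inactive means fall in fluorescence gain under 50%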;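 further: plate controls were neutral control wells for no effect and wells lacking membranes for full effect; tested at 10 µM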
Target sequence (Q03530 whole entry, looked up): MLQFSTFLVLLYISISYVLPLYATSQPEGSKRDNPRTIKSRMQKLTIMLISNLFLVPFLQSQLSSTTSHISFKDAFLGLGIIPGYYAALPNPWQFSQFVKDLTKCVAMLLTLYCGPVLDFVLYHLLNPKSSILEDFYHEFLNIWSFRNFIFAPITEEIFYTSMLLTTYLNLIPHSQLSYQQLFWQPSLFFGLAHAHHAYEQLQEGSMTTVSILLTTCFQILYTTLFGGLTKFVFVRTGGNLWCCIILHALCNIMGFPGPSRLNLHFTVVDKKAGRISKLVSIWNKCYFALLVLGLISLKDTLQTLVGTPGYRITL
eIF4H inh retest = further read-out of eIF4H inh, marked with its call; inhibition, %; compound at 20 µM; confirmation average;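 mean of two retest wells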
PABP FP inh retest = also measured in PABP FP inh; calls as there; inhibition, %; compound at 20 µM; confirmation repeats;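 mean of two retest wells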
MT1-MMP act inh RFP = recorded beside MT1-MMP act inh, whose call it bears; RFP signal change, %; measured here: RFP expression control read;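 0 = vehicle wells; hits needed this value within 50% of zero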
* marks the source's active call; other numbers are inactive results; i = inactive; ? = inconclusive; nt = no result given; & = joins results of further samples. These rows are one share of the data (hit frequency here may not be typical).

SMILES | UUG fidelity | Env fusion inh | MT1-MMP act inh | MT1-MMP act inh RFP | CSC inhib | eIF4H inh | PABP FP inh | Rce1 inh | others
Cc1ccsc1C(=O)OCc1nnc(-c2ccccc2)o1 | -18 | nt | 6 | 7 | -12 | nt | nt | nt
COc1ccc(N2C(=O)c3ccccc3NC23CCC(C)CC3)cc1 (stereo not drawn) | nt | -54 | 3 | 0 | -9 | -9 | 2 | nt
COc1ccccc1N1CCN(C(=O)c2ccc3c(=O)n4c(nc3c2)CCCCC4)CC1 | -1 | -4 | 1 | 2 | 25 | nt | nt | nt
NNC(=O)c1[nH]c(-c2ccccc2)cc1-c1ccccc1 | 9 | -1 | -2 | 2 | 22 | 1 | 10 | i
COc1cc(NC(=S)NCc2ccc(S(N)(=O)=O)cc2)c(OC)cc1Cl | nt | 17 | -2 | -3 | 7 | -1 | 9 | i
Cc1cc(C(=O)CN2CCN(CC(=O)Nc3cccc(F)c3)CC2)c(C)n1C1CC1 | -14 | nt | 5 | 1 | 9 | nt | nt | nt
COc1cc(OC)cc(C(=O)Nc2ccc3c(c2)n(C)c(=O)n3C)c1 | -3 | 8 | 2 | 3 | -1 | 0 | 0 | i
CC1CCCCC1NC(=O)c1ccc(-n2cncn2)cc1 (stereo not drawn) | -3 | nt | 3 | 4 | 13 | nt | nt | nt
NS(=O)(=O)c1cccc(NC(=O)CSc2nn(-c3ccccc3)c(=S)s2)c1 | -12 | 27 | -5 | -5 | -6 | -2 | -2 | i
O=C(CCc1nnc2ccc(NCc3ccccc3)nn12)NCC1CCN(C2CCCC2)C1 (stereo not drawn) | -8 | 4 | 1 | 4 | -6 | -6 | -4 | i
Cn1cnnc1SCC(=O)NC1CCCC1 | -3 | -54 | 1 | 3 | 5 | -8 | 10 | i
O=C(NCc1ccco1)C1CCN(c2nnc(-n3cccc3)s2)CC1 | -36 | 32 | 1 | -1 | -12 | -14 | -9 | i
O=C(c1ccc(-c2ccc([N+](=O)[O-])cc2)o1)N1CCCCCCC1 | -12 | nt | 7 | -3 | 64 | nt | nt | nt
CCS(=O)(=O)n1nc(-c2ccc(Cl)cc2)nc1N | 0 | 7 | 0 | -1 | -2 | -8 | 4 | i
O=C(Nc1ccc(OC(F)F)cc1)c1cc(S(=O)(=O)N2CCOCC2)ccc1F | -14 | -7 | -2 | -1 | 0 | -4 | 9 | i
O=C(Nc1c2c(nn1-c1ccccc1)CS(=O)(=O)C2)c1ccc2c(c1)OCO2 | -17 | -7 | -4 | 1 | nt | -9 | -1 | i
Cn1c(=O)c2cc(S(=O)(=O)Nc3cccc(F)c3)ccc2n(C)c1=O | -2 | nt | -7 | -7 | 5 | 14 | 0 | i
O=C(O)c1ccc2c3c(cccc13)C(=O)N(c1ccccc1)C2=O | -12 | -1 | -12 | 1 | -2 | 81 | -14 | i | eIF4H inh retest=-2;PABP FP inh retest=2
Cc1ccc2occ(/C=N/NC(=O)c3ccccc3C)c(=O)c2c1 | -19 | 14 | -15 | -8 | 47 | 10 | 10 | i
CCN(C(=O)COC(=O)CCOc1ccccc1)c1c(N)n(Cc2ccccc2)c(=O)[nH]c1=O | 2 | nt | -3 | 1 | -11 | nt | nt | nt
CCc1ccc2c(c1)NC(=O)C2(C)Cc1ccc(Cl)s1 (stereo not drawn) | -23 | 6 | -1 | -10 | nt | nt | nt | nt
O=C(CCNC(=O)N1CC(=O)Nc2ccccc21)Nc1ccc(Cl)cc1 | -16 | 5 | 2 | 0 | -2 | -2 | 6 | i
C=CCNC(=S)NCc1ccc(CNC(=S)NCC=C)cc1 | -33 | 14 | 10 | 12 | 2 | -5 | -5 | i
CCC(C)(C)n1nnnc1CN1CCN(C(c2ccccc2)c2ccccc2)CC1 | -4 | -41 | -16 | -7 | -2 | 10 | -6 | i
CNC(=O)N(O)C1N(C)C(=O)N(Cc2ccccc2)C1(C)C (stereo not drawn) | -9 | -12 | 3 | 4 | -4 | 12 | -1 | i
O=P(c1ccccc1)(c1ccccc1)c1nc(-c2ccccc2)oc1N1CCOCC1 | 1 | 24 | 0 | -2 | 3 | -8 | 2 | i
Cc1ccc(-c2nn(-c3ccccc3)cc2/C=C/C(=O)O)o1 | -18 | 4 | 6 | 3 | 4 | -6 | 23 | i
COc1cccc(NC(=O)Cn2c3ccccc3c3nc4n(c(=O)c32)CCCS4)c1 | -12 | 3 | 1 | 0 | -1 | nt | nt | i
Cc1cc(OCC(=O)Nc2ccc(OCc3ccccc3)cc2)nc(C(C)C)n1 | -19 | -47 | 3 | -2 | -7 | 12 | -6 | nt
COc1ccc(CCNC(=O)C(=O)NCC2CCCN2S(=O)(=O)c2ccc(OC)cc2)cc1 (stereo not drawn) | 15 | 7 | 0 | -7 | -3 | nt | nt | i
CCOC(=O)C1(C)/C(=N/Nc2cccc(Cl)c2)C(=O)C(=O)N1c1ccccc1 (stereo not drawn) | nt | nt | 2 | 4 | 1 | 5 | 10 | i
Cc1cc(C)c2cc(C#N)c(N3CCNCC3)nc2c1 | -4 | -32 | -2 | 3 | nt | nt | nt | nt
CC(=O)Nc1ccc(NC(=O)C2Cc3c(-c4cccc(F)c4)ccnc3O2)cc1 (stereo not drawn) | -12 | ? | 1 | -2 | nt | nt | nt | nt
Cc1cccc(C(=O)N2CCCC(CCC(=O)N3CCN(c4ccccn4)CC3)C2)c1 (stereo not drawn) | 5 | 4 | -1 | -5 | -5 | 3 | -4 | i
CC(NC(=O)c1cccc(N2CCCC2=O)c1)c1ccc2c(c1)OCCO2 (stereo not drawn) | -9 | nt | 4 | 4 | -5 | 0 | -5 | i
CNC(=O)COC(=O)c1ccccc1C(=O)c1ccc(Cl)c([N+](=O)[O-])c1 | nt | 22 | -30 | -35 | nt | -3 | 4 | i
N#Cc1cccc(NC(=O)COC(=O)c2ccc[n+]([O-])c2)c1 | -14 | 7 | -4 | 0 | -15 | nt | nt | nt
C[C@H]1CN([C@@H](C)CO)C(=O)c2cccc(NS(=O)(=O)c3ccc(Cl)cc3)c2O[C@@H]1CN(C)CC1CCCCC1 | 14&17 | -60 | 3 | 1 | nt | nt | nt | nt
CCNc1nc(NC(C)CC)nc(Oc2ccc(=O)[nH]n2)n1 (stereo not drawn) | -5 | nt | -9 | -6 | 0 | 2 | 3 | i
Cc1cc(C)c(C#N)c(N2CCN(Cc3ccccc3)CC2)n1 | -5 | -52 | -2 | 7 | nt | -2 | 0 | i

Structural class: the entries above with a COOH group
SMILES | UUG fidelity | Env fusion inh | MT1-MMP act inh | MT1-MMP act inh RFP | CSC inhib | eIF4H inh | PABP FP inh | Rce1 inh | others
O=C(O)c1ccc2c3c(cccc13)C(=O)N(c1ccccc1)C2=O | -12 | -1 | -12 | 1 | -2 | 81 | -14 | i | eIF4H inh retest=-2;PABP FP inh retest=2
Cc1ccc(-c2nn(-c3ccccc3)cc2/C=C/C(=O)O)o1 | -18 | 4 | 6 | 3 | 4 | -6 | 23 | i

Further results follow:
SMILES | UUG fidelity | Env fusion inh | MT1-MMP act inh | MT1-MMP act inh RFP | CSC inhib | eIF4H inh | PABP FP inh | Rce1 inh | others
O=C(COn1nnc2ccc(Cl)cc21)NCc1ccccc1 | -17 | nt | 4 | 0 | -5 | -10 | -8 | i
COc1cc2c(cc1OC)C(Cc1ccc(O)cc1)NCC2 (stereo not drawn) | 1 | 11 | 4 | 0 | -12 | 6 | -7 | i
CCN([C@H](CO)C(C)C)S(=O)(=O)c1ccccc1Br | -11 | 8 | 2 | 5 | nt | nt | nt | nt
N#CC(C(=O)NCc1ccccc1)c1nc2ccccc2nc1N1CCCC1 (stereo not drawn) | -15 | nt | -38 | -6 | 20 | ? | ? | i
COc1ccc(S(=O)(=O)N2CCOC23CCN(S(=O)(=O)c2cc(F)ccc2F)CC3)cc1 | nt | nt | 3 | -1 | 8 | nt | nt | i
O=[N+]([O-])c1ccc(-c2n(-c3ccccn3)c3ccccc3[n+]2-c2ccccn2)cc1 | 8 | 33 | 1 | 2 | -5 | 20 | 12 | i
CCOc1ccccc1NC(=O)C(=O)CC(=O)c1ccc(OC)cc1 | -1 | 12 | -3 | -4 | -8 | 9 | 4 | i
COc1ccc(CCN=C(N)C(C)c2ccccc2)cc1OC (stereo not drawn) | 0 | 23 | 0 | 1 | -11 | -2 | 8 | i
O=[N+]([O-])c1ccccc1NCc1ccccc1Cl | nt | 9 | 1 | 3 | 6 | -8 | -8 | i
CCc1c(C)nc(SCC(=O)Nc2cccc(Br)c2)[nH]c1=O | -3 | nt | 5 | -1 | 10 | -5 | -8 | nt
COc1cc(SC)ccc1C(=O)NCCOc1ccccc1Cl | -19 | -147 | 4 | 4 | 8 | -12 | -6 | i
Cc1ccc(C(=O)COC(=O)c2cc(Cl)ccc2O)cc1[N+](=O)[O-] | -4 | 0 | 0 | -3 | nt | 1 | 9 | i
CC(C)(CNC(=O)c1ccc(Br)o1)CNC(=O)c1ccc(Br)o1 | -6 | -42 | 2 | 3 | nt | -2 | 2 | i
C=CCOc1cccc(C2C(C(=O)c3ccc(C)o3)=C(O)C(=O)N2c2nnc(C)s2)c1 (stereo not drawn) | -16 | -11 | -52 | 5 | -9 | nt | nt | i
COC1OC(CO)C(N=C(C)C)C1O (stereo not drawn) | -8 | 7 | 10 | 7 | nt | nt | nt | nt
Cn1c(=O)c(C(=O)c2ccccc2)nc2ccccc21 | -14 | nt | -3 | -1 | -17 | -4 | 13 | i
CN1CCN(CC(=O)Nc2ccccc2[N+](=O)[O-])CC1 | -18 | -13 | 1 | 5 | nt | -16 | 4 | i
COc1ccc(CCNC(=O)CCn2c(SCC(=O)N3CCCC3)nc3ccccc3c2=O)cc1OC | 1 | 5 | 2 | 1 | -4 | 4 | 2 | i
O=C1CCC(C(=O)NCCCn2ccnc2)N1 (stereo not drawn) | -17 | -17 | 1 | 4 | -3 | -5 | 10 | i
Cc1cc(=O)[nH]c(SCC(=O)N2c3ccccc3CC2C)n1 (stereo not drawn) | 5 | nt | 0 | -3 | -2 | 12 | 8 | i
CC(C)OP(=O)(c1ccc(N(C)C)cc1)C(O)c1ccncc1 (stereo not drawn) | -12 | 2 | -1 | -4 | -11 | 1 | -2 | i
CC(C)Cn1cnc2c1c(=O)n(CC(=O)NN)c(=O)n2Cc1ccccc1 | nt | 0 | 3 | 2 | -16 | -7 | -4 | i
CC(c1ccccc1)N1CC(C(=O)N2CCCC(C(N)=O)C2)CC1=O (stereo not drawn) | -6 | -8 | -3 | 6 | -7 | nt | nt | nt
CC(C)c1nc(C(=O)N2CCCC(CCC(=O)N(C)CCc3ccccn3)C2)cs1 (stereo not drawn) | 5 | 2 | -2 | -1 | -11 | 6 | -4 | i
CC12CCC(C(=O)O)(C/C1=N\O)C2(C)C (stereo not drawn) | -15&-11 | -41&-27 | 1&-2 | 4&6 | -1&-6 | -10&-8 | 1&-6 | i
CC1Oc2ccccc2N(CC(=O)NCCCN2CCOCC2)C1=O (stereo not drawn) | -11 | 6 | -2 | 3 | nt | 2 | -8 | i
